Screening data as filed in PubChem.
Ecoli rRNA inh: selective bacterial rRNA inhibition in E. coli. E. coli WT GFP vs humanized-ribosome RFP mutants, fluorescence, 24 h; hits give low values; DMSO median 0, no signal -100. GFP signal change (wild-type ribosome), % (test concentration not listed). 350,000 tested, 1.6% active;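 active means significant combined selectivity score with lowered wild-type GFP, culture density cut under 30%, mutant RFP and density less affected; inactive means any of these conditions unmet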; further: one replicate is shown; some compounds called inactive have numbers as strong as hits
Ecoli rRNA inh OD600: second read-out of Ecoli rRNA inh, no call of its own (marks repeat the call); OD600 change, %; measured here: OD600 growth;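 optical density of the mix in the first replicate; 0 = DMSO median and -100 = no signal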
Ecoli rRNA inh RFP: further read-out of Ecoli rRNA inh, marked with its call; RFP signal change, %; measured here: RFP humanized mutant strains;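 first replicate; 0 = DMSO median and -100 = no signal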
An asterisk follows results filed as active; & = joins results of further samples. Some of the compounds tested (hit frequency here may not be typical).

nr	Ecoli rRNA inh	Ecoli rRNA inh OD600	Ecoli rRNA inh RFP	structure
1	-1	4	12	COc1ccc(S(=O)(=O)Nc2ccc3c(c2)C(=O)N([C@@H](C)CO)C[C@@H](C)[C@H](CN(C)S(=O)(=O)c2ccc(C)cc2)OCCCC[C@@H](C)O3)cc1
2	-3	-7	-0.6	COc1ccc2c3c(n(C)c2c1)[C@H](CO)N(C)CC31CN(C(=O)c2ccccc2F)C1
3	2	2	0.3	C[C@H](CO)N1C[C@H](C)[C@@H](CN(C)CC2CCCC2)Oc2cc(C#CC3CC3)ccc2S1(=O)=O
4	1	-4	-0.5	COc1ccccc1C(=O)N1C[C@@H]2[C@H](c3ccccc31)[C@@H](CO)N2C(=O)C1CCCC1
5	-5	-11	-5.5	C[C@H](NC(=O)C[C@H]1C[C@H]2c3cc(NC(=O)NC4CCCCC4)ccc3O[C@H]2[C@@H](CO)O1)c1ccccc1
6	0	0	1.3	Cc1noc(C)c1S(=O)(=O)N(C)C[C@@H]1OCCCC[C@@H](C)Oc2ccc(NC(=O)CCC(F)(F)F)cc2C(=O)N([C@@H](C)CO)C[C@H]1C
7	-12	-39	-2.1	COc1ccc(S(=O)(=O)N2C[C@@H](O)COC[C@@H]3O[C@H](CC(=O)NCc4ccc(Cl)c(Cl)c4)CC[C@H]32)cc1
8	-3	2	1.5	Cc1ccccc1-c1ccc([C@H]2[C@@H](CO)N3CCCCN(C(=O)c4cccnc4)C[C@H]23)cc1
9	-9	-17	12	CN(Cc1ccccc1)Cc1cc(=O)oc2ccc3ccccc3c12
10	-1	-1	-0.2	C[C@H](CO)N1C[C@H](C)[C@H](CN(C)C(=O)Nc2cccc3ccccc23)Oc2c(NS(C)(=O)=O)cccc2C1=O
11	4	6	-2.1	COCC(=O)N1CC2(C1)CN(C(=O)Nc1ccccc1F)[C@H](CO)c1[nH]c3cc(OC)ccc3c12
12	5	5	-1.6	CCC(=O)N1C[C@H](O)COC[C@H]2O[C@H](CC(=O)N3CCCCC3)CC[C@@H]21
13	-5	-3	-1.7	COc1cccc(S(=O)(=O)N2CC[C@@H]3[C@H](CO)Nc4ccc(Br)cc4[C@@H]32)c1
14	-11	-5	1.6	CN(C(=O)COC(=O)COc1ccc2ccccc2c1)c1ccccc1
15	0	1	2.1	C[C@@H]1CN([C@@H](C)CO)C(=O)Cc2cc(NC(=O)NC3CCCCC3)ccc2O[C@@H]1CN(C)Cc1ccc(Oc2ccccc2)cc1
16	6	9	0.4	CCOC(=O)C1(C)CCN1C(=O)c1cccc2ccccc12 (stereo unspecified)
17	3	9	-1.7	C[C@H]1CN([C@@H](C)CO)C(=O)c2cc(NC(=O)CCC(F)(F)F)ccc2O[C@H]1CN(C)CC1CC1
18	-3	-11	-2.2	C[C@H](CO)N1C[C@H](C)[C@H](CN(C)C(=O)Nc2ccccc2)Oc2cc(C#Cc3ccccc3)ccc2S1(=O)=O
19	-5	11	1.8	COc1ccc(Cc2c(-c3cccc(Br)c3)nc3ccc(Cl)cn23)c(C)c1
20	0	7	-4.7	O=C1CN(Cc2ccccc2)C[C@@H]2[C@@H](c3ccc(Br)cc3)[C@H](CO)N12
21	3	9	-0.1	Cc1noc(C)c1NC(=O)Nc1ccc2c(c1)C(=O)N([C@H](C)CO)C[C@H](C)[C@H](CN(C)S(=O)(=O)c1cn(C)cn1)OCCCC[C@H](C)O2
22	0	-2	-0.5	C[C@H](CO)N1C[C@H](C)[C@H](CN(C)CC2CCCCC2)OCCCC[C@H](C)Oc2ccc(NC(=O)CCC(F)(F)F)cc2C1=O
23	1	-3	1.4	Cc1ccc(S(=O)(=O)NCC[C@H]2CC[C@H](NC(=O)c3cnccn3)[C@@H](CO)O2)cc1
24	0	-3	-0.3	C[C@H]1CN([C@@H](C)CO)C(=O)c2cc(NS(=O)(=O)c3cn(C)cn3)ccc2O[C@H]1CN(C)S(=O)(=O)c1ccc(F)cc1
25	-52	-76	-9.6	C[C@H](CO)N1C[C@H](C)[C@@H](CN(C)Cc2ccncc2)Oc2ccc(NC(=O)Nc3ccc(C(F)(F)F)cc3)cc2C1=O
26	-3	-1	6.1	CCCCOCCCNC(=O)C[C@@H]1C[C@@]2(C(=O)OC)CCCCC=C2N(Cc2ccco2)C1=O
27	3	10	-0.8	CCCN(C)C[C@@H]1Oc2cc(C#CC3CCCCC3)ccc2S(=O)(=O)N([C@H](C)CO)C[C@@H]1C
28	2	6	-2.2	CN1C(=O)c2cc(NC(=O)Nc3ccccc3Cl)ccc2OC[C@@H]2O[C@H](CC(=O)NCCCN3CCOCC3)CC[C@H]21
29	4	8	-2.2	CC(C)C[C@H]1COc2cc(Br)ccc2S(=O)(=O)N1Cc1cccc(Cl)c1
30	-1	1	0.3	C[C@H](CO)N1C[C@H](C)[C@H](CN(C)Cc2ccccc2C(=O)O)Oc2ncc(C#CC3CC3)cc2C1=O

Sorted by value in Ecoli rRNA inh RFP (rising): 3 from the list above
nr	Ecoli rRNA inh	Ecoli rRNA inh OD600	Ecoli rRNA inh RFP	structure
24	0	-3	-0.3	C[C@H]1CN([C@@H](C)CO)C(=O)c2cc(NS(=O)(=O)c3cn(C)cn3)ccc2O[C@H]1CN(C)S(=O)(=O)c1ccc(F)cc1
3	2	2	0.3	C[C@H](CO)N1C[C@H](C)[C@@H](CN(C)CC2CCCC2)Oc2cc(C#CC3CC3)ccc2S1(=O)=O
14	-11	-5	1.6	CN(C(=O)COC(=O)COc1ccc2ccccc2c1)c1ccccc1

Next section
nr	Ecoli rRNA inh	Ecoli rRNA inh OD600	Ecoli rRNA inh RFP	structure
31	5	0	1.3	C[C@@H]1CN([C@H](C)CO)C(=O)Cc2cc(NS(=O)(=O)c3cccs3)ccc2O[C@@H]1CN(C)CC1CCCCC1
32	-21*	-0.2*	6.4*	COc1ccc(Nc2nc3cc(-c4ccsc4)sc3c(=O)n2C)cc1OC
33	-16	-47	-0.7	O=C(Nc1ccc(F)cc1)N1CC(=O)N2[C@H](CO)[C@H](c3ccc(C4=CCCC4)cc3)[C@@H]2C1
34	-4&3	-4&-6	-0.7&1.4	Cc1ccccc1-c1ccc(C2[C@@H]3CN(C(=O)c4cnccn4)C[C@H]2N3)cc1 (stereo partly specified)
35	-2	8	0.3	COc1ccc(NC(=O)Nc2ccc3c(c2)[C@H]2C[C@H](CC(=O)NCc4ccccc4F)O[C@@H](CO)[C@H]2O3)cc1
36	-1	0	-1.2	O=C(CC1CC1)N[C@H]1CC[C@@H](CCNS(=O)(=O)c2ccc(Cl)cc2)O[C@@H]1CO
37	10	-7	-1.5	O=S(=O)(c1ccc(C(F)(F)F)cc1)N1CCCc2nc(-c3ccc(Br)cc3)ccc21
38	1	-30	-10	CNC(=O)C1Cc2c(-c3ccccc3Oc3ccccc3)ccnc2O1 (stereo unspecified)
39	2	15	0.5	C[C@H]1CCCCO[C@H](CN(C)S(=O)(=O)c2ccc(F)cc2)[C@@H](C)CN([C@@H](C)CO)C(=O)c2cc(NC(=O)NC3CCCCC3)ccc2O1
40	1	-5	2.0	CN1CCN(C(=O)C[C@@H]2CC[C@@H]3[C@H](COC[C@H](O)CN3CC3CC3)O2)CC1
41	7	10	-2.9	CC(C)[C@H]1COCc2cnnn2CCC[C@H](C)C(=O)N1
42	0	4	0.2	CNC[C@H]1Oc2ccc(NS(=O)(=O)c3ccc(F)cc3)cc2CC(=O)N([C@H](C)CO)C[C@H]1C
43	1	3	-3.0	COCCNC(=O)[C@@H]1[C@@H](CO)[C@@H]2Cn3c(ccc(-c4ccccc4F)c3=O)[C@@H]2N1C(=O)C1CC1
44	0	-8	9.8	C[C@@H]1CN([C@@H](C)CO)C(=O)c2cc(C#Cc3ccccc3F)cnc2O[C@H]1CN(C)C(=O)C1CCC1
45	2	3	-0.1	CN(C)C(=O)c1cc2c(c(-c3cccc(C4=CCCCC4)c3)n1)[C@H](CCO)N(S(C)(=O)=O)C2
46	6	12	-2.2	COCC#Cc1cnc2c(c1)C(=O)N([C@H](C)CO)C[C@H](C)[C@H](CN(C)S(=O)(=O)c1ccccc1)O2
47	-2	-15	10	C[C@H]1CN([C@@H](C)CO)C(=O)Cc2cc(NS(=O)(=O)c3ccccc3)ccc2O[C@@H]1CN(C)Cc1ccc(C(F)(F)F)cc1
48	0	2	-1.6	CO[C@@H]1CN(C)C(=O)c2cc(NC(=O)C3CC3)ccc2OC[C@@H](C)N(C(=O)c2ccccn2)C[C@@H]1C
49	2	-1	1.2	C[C@H]1CN([C@@H](C)CO)C(=O)Cc2cc(NS(=O)(=O)c3ccc(F)cc3)ccc2O[C@H]1CN(C)S(=O)(=O)c1ccccc1
50	7	14	-2.1	CC(C)Nc1ncnc2c1ncn2[C@H]1CN(Cc2ccco2)C[C@@H](CO)O1
51	5	13	-3.9	N#C[C@H]1[C@H](c2ccccc2)[C@H](CO)N1C(=O)Nc1cccc(F)c1
52	-4	-2	-2.2	O=C(CN1CCOCC1)NCC[C@@H]1CC[C@H](NC(=O)Nc2ccc(Cl)cc2)[C@H](CO)O1
53	0	6	-1.2	CCCN1C[C@@H](C)[C@@H](OC)CN(C)C(=O)c2ccc(NC(=O)c3ccccc3)cc2OC[C@H]1C
54	-5	-17	12	CCc1nc2c(OCCOc3ccc(F)cc3)cccn2c1N(C)C(=O)c1ccccc1F
55	4	6	-1.4	CCCCCCN1CCN(C2CN(C3CCCCC3)S(=O)(=O)C2)CC1 (stereo unspecified)
56	2	4	-3.2	C[C@H](CO)N1C[C@H](C)[C@H](CN(C)S(=O)(=O)c2ccccc2)Oc2c(NS(=O)(=O)c3ccccc3)cccc2C1=O
57	-1	10	-2.6	O=C(N[C@H]1CC[C@H](CCNS(=O)(=O)Cc2ccccc2)O[C@@H]1CO)c1cnccn1
58	7	-2	0.5	COC(=O)[C@]12C[C@H](CC(=O)NCc3ccc(C)o3)C(=O)N(Cc3ccc4c(c3)OCO4)C1=C[C@H](C(C)(C)C)O[C@@H]2C
59	1	4	1.6	CCNC(=O)C[C@@H]1CC[C@H]2[C@@H](COC[C@@H](O)CN2C(=O)C2CCCC2)O1
60	0	12	-0.3	C[C@@H]1CN([C@H](C)CO)C(=O)c2cccc(NC(=O)Nc3ccccc3)c2O[C@@H]1CN(C)C(=O)Nc1ccc2c(c1)OCO2
61	-1	-13	3.3	Cc1ccccc1-c1ccc([C@@H]2[C@H]3CN(S(C)(=O)=O)CC(=O)N3[C@H]2CO)cc1
62	3	3	-1.8	CC(=O)NC[C@@H]1[C@@H](c2ccc(C3=CCCC3)cc2)[C@@H](CO)N1C(=O)CN(C)C
63	7	8	-0.3	Nc1ccn([C@@H]2O[C@H](CNCc3cccc(OC4CCCC4)c3)[C@@H](O)[C@H]2O)c(=O)n1
64	3	1	-1.7	CCC(=O)Nc1ccc2c(c1)C(=O)N(C)[C@@H]1CC[C@@H](CC(=O)NCCCN(C)C)O[C@@H]1CO2
65	-4	4	-4.5	O=C(NC1CCCC1)N1CC(=O)N2[C@H](CO)[C@H](c3ccc(-c4cccnc4)cc3)[C@@H]2C1
66	-58	-78	-17	COc1ccccc1CNC(=O)C[C@@H]1CC[C@H]2[C@@H](COC[C@@H](O)CN2C(=O)Nc2ccc(Cl)cc2)O1
67	2	-7	1.3	C[C@@H]1CN([C@H](C)CO)C(=O)Cc2cc(NC(=O)CCN3CCOCC3)ccc2O[C@H]1CN(C)S(C)(=O)=O
68	4	4	-1.8	CN(C)Cc1cn(CC[C@H]2CC[C@H](NS(=O)(=O)c3ccccc3)[C@H](CO)O2)nn1
69	2	8	5.4	Cc1ccc(S(=O)(=O)Nc2ccc3c(c2)C(=O)N([C@@H](C)CO)C[C@H](C)[C@@H](CN(C)S(=O)(=O)c2ccc(Cl)cc2)OCCCC[C@@H](C)O3)cc1
70	-3	0	0.9	COc1ccc(NC(=O)N(C)C[C@@H]2OCCCC[C@H](C)Oc3ccc(NS(=O)(=O)c4ccc(F)cc4)cc3C(=O)N([C@H](C)CO)C[C@@H]2C)cc1
71	-5	-5	1.3	C[C@@H]1CN([C@H](C)CO)C(=O)c2cccc(NC(=O)C3CCOCC3)c2O[C@H]1CN(C)Cc1ccc2c(c1)OCO2
72	-6	-45	-0.8	O=C(C[C@@H]1CC[C@H]2[C@@H](COC[C@H](O)CN2CCc2ccccc2)O1)NCc1ccc(Oc2ccccc2)cc1
73	1	5	2.6	Nc1ccn([C@@H]2O[C@H](CN=C3NS(=O)(=O)c4ccccc43)[C@@H](O)[C@H]2O)c(=O)n1
74	1	-4	-6.2	CCCC(C)(C)C(=O)N1CCC1(C)C(=O)Nc1ccc(OC)c(OC)c1 (stereo unspecified)
75	-8	-11	2.8	O=C([C@H]1N[C@H]2c3ccc(-c4ccc(F)cc4)c(=O)n3C[C@H]2[C@@H]1CO)N1CCc2ccccc2C1
76	-4	0	32	Cn1ccc2c(-c3ccc(F)cc3F)cc3c(c21)C1CCC3C1 (stereo unspecified)
77	-4	-2	-1.1	C[C@H]1CCCCO[C@H](CN(C)Cc2ccncc2)[C@@H](C)CN([C@@H](C)CO)C(=O)c2cc(NC(=O)Cc3ccccc3)ccc2O1
78	-2	-7	-0.5	Cc1cc(=O)[nH]c2nc3ccccc3n12
79	7&0	19&-1	1.5&0.5	Cc1ccccc1S(=O)(=O)N(C)C[C@H]1OCc2cnnn2CCCC(=O)N([C@H](C)CO)C[C@H]1C

Structural class: the compounds so far with a furan ring, fused or not (three)
nr	Ecoli rRNA inh	Ecoli rRNA inh OD600	Ecoli rRNA inh RFP	structure
26	-3	-1	6.1	CCCCOCCCNC(=O)C[C@@H]1C[C@@]2(C(=O)OC)CCCCC=C2N(Cc2ccco2)C1=O
50	7	14	-2.1	CC(C)Nc1ncnc2c1ncn2[C@H]1CN(Cc2ccco2)C[C@@H](CO)O1
58	7	-2	0.5	COC(=O)[C@]12C[C@H](CC(=O)NCc3ccc(C)o3)C(=O)N(Cc3ccc4c(c3)OCO4)C1=C[C@H](C(C)(C)C)O[C@@H]2C
